MT1-MMP promoter – inhibitors of MT1-MMP promoter transcription, cell-based, luciferase reporter, luminescence (AID 618). MT1-MMP promoter luciferase reporter cells, luminescence. calls from a first round at 10 µM; hits with a dose series show EC50 in µM. 87,000 compounds, 0.62% hits;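 active means over half of the reporter light lost at 10 µM or EC50 under 50 µM; inactive means the rest and hits that failed the dose series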;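 further: actives suppress MT1-MMP promoter-driven transcription so potencies describe inhibitors; HT1080 fibrosarcoma cells; overnight exposure; toxic or luciferase-blocking compounds were not removed from the actives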
WNV NS2B-NS3 inh – inhibitors of WNV NS2B-NS3 protease, primary screen, biochemical, fluorogenic substrate; Genome polyprotein (West Nile virus), P06935; fluorogenic substrate Ex360/Em465; active compounds read low; z-score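 (tested at a level between 10 and 100 µM)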; 65,000 compounds, 0.18% hits;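 active means z-score at -3 or under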;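 further: score is relative to mean and spread of the compound wells of a plate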
Target sequence (P06935 1371-1501 limits assumed): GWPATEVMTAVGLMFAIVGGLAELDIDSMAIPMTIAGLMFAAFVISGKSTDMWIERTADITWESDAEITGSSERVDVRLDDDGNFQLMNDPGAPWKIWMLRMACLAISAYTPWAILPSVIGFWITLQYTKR
Target sequence (P06935 1502-1679 limits assumed): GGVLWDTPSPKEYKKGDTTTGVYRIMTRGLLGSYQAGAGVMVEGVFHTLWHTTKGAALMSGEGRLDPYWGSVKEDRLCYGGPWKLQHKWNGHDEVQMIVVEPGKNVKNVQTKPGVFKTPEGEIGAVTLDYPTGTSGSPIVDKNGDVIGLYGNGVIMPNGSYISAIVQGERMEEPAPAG
Hsc70 ATP site – Hsc70 inhibitors, probe displacement, primary screen, biochemical, fluorescence polarization (AID 568) | Heat shock cognate 71 kDa protein (Homo sapiens) | Hsc70 fluorescence polarization, probe displacement; higher % means a stronger effect; strong numbers were not always called active | displacement, % at 20 µM, or IC50 in µM where a hit was titrated | 83,000 tested, under 10 active;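 active means displacement above 50% without optical interference and an IC50 on retest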;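 further: ATPase domain with a fluorescein-tagged ATP probe; 0% = vehicle and 100% = excess ADP; read after one hour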
* hit, by the source's call; i = inactive; . = no result given. Rows are unselected; 0.87% or so of the library scored in one or more.

SMILES	WNV NS2B-NS3 inh	MT1-MMP promoter	Hsc70 ATP site
COc1ccc(Cc2nc(-c3ccc(Cl)cc3)no2)cc1	1.1	i	-1.8%
NC(=O)c1cccc(S(=O)(=O)N2CCCCC2)c1	0.06	i	1.2%
Cc1nn(C(C)C(=O)N2CCc3ccccc3C2)c(=O)c2cc3occc3n12 (centres undefined)	0.84	i	-3.0%
CC(C)N(CCc1ccncc1)C(=O)Nc1ccc(Cl)c(Cl)c1	-0.84	i	1.5%
Cc1cc2c(N=O)c(NO)ccc2[nH]1	-0.45	i	-3.6%
Cc1ccccc1C(=O)Nc1ccc(Br)c(C)n1	-0.31	i	7.9%
CCCCCOC(=O)C1C(c2ccccc2)C(C(=O)O)C1c1ccccc1 (centres undefined)	.	i	1.5%
CN(C(=O)COC(=O)c1ccc2c(c1)OCO2)C1CCS(=O)(=O)C1 (centres undefined)	0.0048	i	7.2%
CC(=O)C1=C(C)NC(SCSc2ccccc2)=C(C#N)C1c1cccnc1 (centres undefined)	1.6	i	-1.3%
Cc1cc(=O)n2[nH]c(-c3ccc(F)cc3)nc2n1	-0.14	i	-4.2%
Cc1cc(C)n(-c2ccc(Cl)c(C(=O)Nc3ccc(-c4nnc5n4CCCCC5)cc3)n2)n1	1.1	i	-6.9%
CCn1c(SCC(=O)N2CCCC2)nnc1-c1ccc(S(=O)(=O)N2CCCCCC2)cc1	0.35	i	-6.2%
COCCCNC(=O)C1CCCN(S(=O)(=O)c2ccc(C)cc2)C1 (centres undefined)	.	i	1.6%
O=C(NCCCCC(NC(=O)C1CCCCC1)C(=O)O)c1ccccc1 (centres undefined)	-1.6	i	-6.6%
O=C(CC(SCc1ccco1)c1ccc(O)cc1)c1cccs1 (centres undefined)	-1.3	i	-1.7%
COc1ccc(N2CC(O)=C(c3nc4ccccc4s3)C2=N)c(OC)c1	-0.91	i	-13%
CCOC(=O)c1ccccc1NC(=O)c1cncc(Br)c1	0.06	i	-2.6%
CCOc1ccccc1C1CC(c2ccc(F)cc2)Nc2nc(N)nn21 (centres undefined)	-0.56	i	3.5%
Cc1ccc2cc3cc(C(=O)NCc4ccco4)oc3nc2c1	-0.66	i	-6.8%
Cn1c(=O)cc(SCC(=O)NCCCN2CCOCC2)c2ccccc21	-0.41	i	-4.7%
CC(O)Cc1nsc(NC(=O)c2cccs2)n1 (centres undefined)	-0.27	i	1.0%
COc1ccc2nc(SCc3cnc(C)nc3N)[nH]c2c1	0.07	i	-3.9%
O=C(CN1C(=O)C2C3C=CC(C3)C2C1=O)Nc1nc(-c2ccccn2)cs1 (centres undefined)	.	i	-0.7%
Cc1ccc(Cn2cc(/C=C/C(=O)O)c(-c3ccccc3)n2)cc1	.	i	3.6%
CCOC(=O)CN1CC23C=CC(O2)C(C(=O)NCc2ccccc2OC)C3C1=O (centres undefined)	0.18	i	4.9%
COc1ccc(C(=O)N(Cc2nc(-c3ccc(C)cc3)no2)C2CCCCC2)cc1OC	-1.5	i	5.0%
CCOc1ccc(-c2cc(CCCC(=O)N3CCN(c4ccc(OC)cc4)CC3)no2)cc1	-0.01	i	3.2%
O=C(c1ccc(S(=O)(=O)N2CCC(c3nc4ccccc4[nH]3)CC2)cc1)N1CCOCC1	1.8	i	2.8%
Cc1nc(=O)c(-c2ccccc2)c(C)n1-c1ccc(S(N)(=O)=O)cc1	-0.65	i	1.0%
Cc1ccc(C)n1-c1ccc(C(=O)O)cc1	.	i	5.3%

Single records, from the list above. Screens in order: WNV NS2B-NS3 inh	MT1-MMP promoter	Hsc70 ATP site
O=C(NCCCCC(NC(=O)C1CCCCC1)C(=O)O)c1ccccc1 (centres undefined) is listed as -1.6	i	-6.6%
COCCCNC(=O)C1CCCN(S(=O)(=O)c2ccc(C)cc2)C1 (centres undefined) is listed as .	i	1.6%

Sorted by length of the SMILES (low to high): part of the list above
SMILES	WNV NS2B-NS3 inh	MT1-MMP promoter	Hsc70 ATP site
O=C(CC(SCc1ccco1)c1ccc(O)cc1)c1cccs1 (centres undefined)	-1.3	i	-1.7%
O=C(NCCCCC(NC(=O)C1CCCCC1)C(=O)O)c1ccccc1 (centres undefined)	-1.6	i	-6.6%
Cc1ccc(Cn2cc(/C=C/C(=O)O)c(-c3ccccc3)n2)cc1	.	i	3.6%
CN(C(=O)COC(=O)c1ccc2c(c1)OCO2)C1CCS(=O)(=O)C1 (centres undefined)	0.0048	i	7.2%
CCOC(=O)CN1CC23C=CC(O2)C(C(=O)NCc2ccccc2OC)C3C1=O (centres undefined)	0.18	i	4.9%
O=C(c1ccc(S(=O)(=O)N2CCC(c3nc4ccccc4[nH]3)CC2)cc1)N1CCOCC1	1.8	i	2.8%

Carrying on.
SMILES	WNV NS2B-NS3 inh	MT1-MMP promoter	Hsc70 ATP site
N#Cc1cc(Oc2cccc3cccnc23)c(-n2nnc3ccccc32)cc1C#N	0.28	i	-3.4%
Cc1cc(C(F)(F)F)nn1CC(=O)Nc1ccc(Br)c2cccnc12	.	i	-0.2%
CCCCNC(=O)CCNC(=O)c1ccc(C(C)(C)C)cc1	.	i	3.0%
CSc1nc2c(ccc3ccccc32)o1	0.2	i	-4.2%
CC(NS(C)(=O)=O)C(c1cccs1)N1CCN(c2ccccc2F)CC1 (centres undefined)	-0.95	i	-2.2%
Cc1nn(C(=O)N2CCOCC2)c(C)c1CN1C(=O)c2ccccc2C1=O	.	i	-0.7%
Cc1ccc(S(=O)c2ccc(C)cc2)cc1	-0.56	i	-4.2%
CC(C)=CC(=O)OCC(=O)Nc1ccc(Cl)cn1	.	i	0.5%
COc1ccc(OC)c(NC(=O)C2CCN(S(C)(=O)=O)CC2)c1	0.53	i	5.3%
CC1=C(C(=O)NCc2ccccn2)C2(CCC(C)CC2)OC1=O (centres undefined)	-0.1	i	-1.8%
COc1ccccc1N1CCN(C(c2cccs2)c2nnnn2C2CCCC2)CC1 (centres undefined)	-0.72	i	7.0%
COc1ccc(OC)c(-n2c(-c3ccc(C)cc3)n[nH]c2=S)c1	.	i	3.1%
COCCn1c(SCC(=O)Nc2cc(C)on2)nnc1-c1c[nH]c2ccccc12	0.17	i	3.2%
COC(=O)Cn1cnc2sc(C)c(S(=O)(=O)N3CCC(C)CC3)c2c1=O	-1.6	i	2.2%
CCC(C)c1c(O)nc(SCC(=O)Nc2ccccc2)[nH]c1=O (centres undefined)	.	i	1.7%
CC(C)CCN1CC(O)=C(c2nc3ccccc3[nH]2)C1=N	.	i	-0.4%
COC(=O)C1=C(C)NC2=C(C(=O)CCC2)C1c1ccsc1 (centres undefined)	1.2	i	-1.5%
C/C(=C\c1ccco1)C1Nc2cccc3cccc(c23)N1	-0.23	i	3.8%
O=C(c1ccco1)N(c1ccccn1)c1ccccn1	-0.26	i	-1.9%
Cc1cc(NS(=O)(=O)c2ccc(NC(=O)C(C)Oc3ccc4c(C)cc(=O)oc4c3)cc2)no1 (centres undefined)	0.78	i	3.5%
O=C(NCCN1CCOCC1)c1cc(-c2ccc(Br)cc2)on1	0.32	i	-9.4%
CC1=C(C(=O)OC(C)C)C(c2cccs2)N2C(=O)C(C)SC2=N1 (centres undefined)	0.83	i	-1.2%
Cc1ccc(Cn2nc(C)c3cc(C(=O)OCC(N)=O)sc32)cc1	.	i	-6.2%
O=C(CN1CCN(Cc2ccccc2)CC1)N1CCCc2c1c(=O)oc1ccc(O)cc21	0.71	i	-4.3%
COc1cccc(-c2nc(CSCC(=O)N3CCc4ccccc43)c(C)o2)c1	0.7	i	5.3%
CCC(C)NC(=O)C1CCN(c2nc(C)cc(C)n2)CC1 (centres undefined)	0.37	i	1.7%
Cc1cc(C)n2nc(SCC(=O)N(C)c3ccccc3)nc2n1	0.12	i	7.5%
CCOC(=O)Cc1csc(NC(=O)c2ccc(C)o2)n1	0.13	i	-0.3%
COc1ccc2[nH]c3c(=O)n(CCCCC(=O)N4CCCC4)c(=S)[nH]c3c2c1	-0.46	i	-2.3%
COc1ccc(-c2nc(C(N)=O)c3[nH]c(=O)n(-c4cccc(Cl)c4)c3n2)cc1OC	-0.11	i	-5.1%
CC(=O)C1=C(C)NC(=O)NC1c1ccc(OC2CCCC2)cc1 (centres undefined)	-1.4	i	-8.3%
Cn1ncc(N=Cc2ccccc2)c1C(=O)Nc1cccc(Cl)c1	.	i	6.0%
CC(C)c1ccc(CNc2ccc(N3CCOCC3)cc2)cc1	-0.11	i	2.9%
O=C(NC1CCN(Cc2ccccc2)CC1)C1CCN(S(=O)(=O)c2cccc3cccnc23)CC1	-1.2	i	1.0%
O=C(NCCCNC(=O)c1ccccn1)c1ccccn1	0.18	i	0.8%
COc1cc(C(=O)OCc2cc3ccccc3[nH]c2=O)cc(OC)c1OC	0.05	i	-0.9%
CN1C(=S)SC(/[N+]([O-])=C\c2ccco2)C1(C)C (centres undefined)	1.1	i	-8.3%
CCc1cccc(Nc2cc(C)nc3nc(C)nn23)c1	2.5	i	3.1%
c1ccc(Cn2ncc3ccccc32)cc1	-0.38	i	-0.3%
Nc1cccc(-c2nc3ccccc3s2)c1	.	i	-3.4%
O=C1CCN(C(=O)c2ccccc2)C2CCCCC12 (centres undefined)	0.26	i	2.7%
CCOC(=O)N1CCN(c2nc(-c3cccc(OC)c3)cc(C(F)(F)F)n2)CC1	0.64	i	1.9%
Clc1ccccc1Nc1c2c(nc3ncnn13)CCC2	0.29	i	-4.1%
CCOc1ccc2[nH]c(=O)c(CN(Cc3cccs3)C(CC)c3nnnn3C(C)(C)CC)cc2c1 (centres undefined)	-0.48	i	-9.4%
CCOC(=O)c1cc(-c2nnc(-c3cc(OC)c(OC)c(OC)c3)o2)c(C)nc1C	-1.5	i	0.3%
COc1ccccc1N1CCN(C(=O)c2c(-c3ccccc3Cl)noc2C)CC1	0.56	i	-6.4%
COC(=O)C1CCN(c2cc(=O)n(C3CCCCC3)c(=O)[nH]2)CC1	0.77	i	-0.7%
COc1ccc(S(=O)(=O)Nc2ccc(S(=O)(=O)N3CCOCC3)cc2)cc1	-0.52	i	1.4%
COc1ccc(-n2c(=O)[nH]cc(C(=O)Nc3ccc4c(c3)OCCO4)c2=O)cc1	-0.83	i	-4.9%
CC1=C(C)C(=O)N(c2ccccn2)C1=O	-0.19	i	-1.4%
Cc1cc(C)nc(NS(=O)(=O)c2ccc(NC(=O)CCN3C(=O)c4ccccc4C3=O)cc2)n1	2.3	i	-3.9%
Cc1cc(-c2nnc(-c3cc4ccccc4oc3=O)o2)c(C)n1-c1ccccc1	-0.56	i	16%
CCOC(=O)c1c(NC(=O)CSc2nnnn2-c2ccc3c(c2)OCCO3)sc(C)c1C	1.1	i	-15%
c1ccc2c(c1)nc(N1CCOCC1)c1nncn12	.	i	0.1%
CCN(CC)S(=O)(=O)c1ccc2oc(C(=O)NCC3COc4ccccc4O3)c(C)c2c1 (centres undefined)	-0.6	i	-5.2%
O=C(c1noc2c1CCc1ccccc1-2)N1CCc2ccccc2C1	0.1	i	-1.8%
Cc1cc2c(cc1C)NC(c1ccccn1)C1=C(CC(C)(C)CC1=O)N2 (centres undefined)	-1.2	i	-1.0%
Cc1cc(C(F)(F)F)nn1CC(=O)N(C)C1CCCCC1	.	i	3.0%
O=C(Cn1c(=O)n2ncnc2c2c3c(sc21)CCCC3)c1ccccc1	1.2	i	0.7%
Cc1cc(-c2ccccc2)nc(N(C)NC(=O)c2ccc(Cl)cc2)c1S(C)(=O)=O	.	i	-4.1%

(continued)
SMILES	WNV NS2B-NS3 inh	MT1-MMP promoter	Hsc70 ATP site
CCC(CC)C(=O)Nc1cccc(C(=O)Nc2nccs2)c1	.	i	0.8%
CCN(CC(=O)Nc1c(C(=O)OC)[nH]c2ccccc12)c1ccc2c(c1)OCO2	0.25	i	14%
COc1ccc(-c2cc(C(=O)O)c(C)o2)cc1OC	-2	3.5µM*	6.1%
O=S(=O)(NCC(c1cccnc1)N1CCN(Cc2ccccc2)CC1)c1ccccc1 (centres undefined)	1.8	i	7.0%
C(=N\c1c(-c2ccccc2)nc2n1CCS2)/c1ccccc1	-0.24	i	-0.9%
CCOC(=O)C1CCCN(CC(=O)Nc2c(C(=O)OC)[nH]c3ccc(Br)cc23)C1 (centres undefined)	-0.22	i	4.6%
CCCN(CCC)S(=O)(=O)c1cc(Br)cc2c1N(C(=O)CC)CC2	-0.85	i	-12%
COc1cccc(C2CC(c3ccc(C)cc3)Nc3nc(N)nn32)c1 (centres undefined)	0.24	i	-1.9%
Cc1nonc1NC(=O)c1ccc(Cl)c(S(=O)(=O)N2CCCCC2)c1	-0.36	i	-10%
O=C1C(c2ccc(F)cc2)N(C2CCCCC2)C(=O)CN1C1CCCC1 (centres undefined)	0.1	i	-1.9%
CC(C)C[C@H](NC(=O)NCc1ccc(Cl)cc1)C(=O)O	1.3	i	-4.2%
CC1Cc2ccccc2N1C(=O)COc1cccc(-n2cnnn2)c1 (centres undefined)	0.69	i	-0.4%
Cc1cc(=O)[nH]c(SCC(=O)Nc2ccc(C(=O)O)cc2)n1	.	i	5.7%
O=C(Cc1cscn1)c1ccc(O)cc1O	0.74	i	4.8%
COc1ccc(-c2csc(NC(=O)CC(C)C)n2)cc1	.	i	6.0%

High-throughput results (PubChem)
